Mtb betalactam: beta-lactam sensitization of Mtb H37Rv. M. tuberculosis H37Rv growth with meropenem, percent inhibition; hits of this screen are not shown here. inhibition, % at 25 µM. 330,000 compounds, 0.27% hits. AID 434955;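 active = about 74% or more and at least 40 points above the plate without the antibiotic, then above 30% in a dose series; inconclusive = first-round hits that could not be retested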;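 note: growth measured after seven days incubation then overnight dye step; 0% = bacteria only wells and 100% = bacteria with antibiotic; twin plates without the antibiotic show which effects depend on it; some results filed as inactive read as strong as hits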
RecA splice inh: blocks M. tuberculosis RecA intein splicing. cell-free RecA intein splicing, fluorescence. inhibition, %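 (about 9 µM by stock and volumes)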. 290,000 compounds, 0.75% hits; in the data active = inhibition above about 30%; inconclusive = no clear call, values can overlap the other calls;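 note: 0% = vehicle wells and 100% = reference inhibitor control wells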
Target sequence (P9WHJ3 whole entry, looked up, canonical isoform): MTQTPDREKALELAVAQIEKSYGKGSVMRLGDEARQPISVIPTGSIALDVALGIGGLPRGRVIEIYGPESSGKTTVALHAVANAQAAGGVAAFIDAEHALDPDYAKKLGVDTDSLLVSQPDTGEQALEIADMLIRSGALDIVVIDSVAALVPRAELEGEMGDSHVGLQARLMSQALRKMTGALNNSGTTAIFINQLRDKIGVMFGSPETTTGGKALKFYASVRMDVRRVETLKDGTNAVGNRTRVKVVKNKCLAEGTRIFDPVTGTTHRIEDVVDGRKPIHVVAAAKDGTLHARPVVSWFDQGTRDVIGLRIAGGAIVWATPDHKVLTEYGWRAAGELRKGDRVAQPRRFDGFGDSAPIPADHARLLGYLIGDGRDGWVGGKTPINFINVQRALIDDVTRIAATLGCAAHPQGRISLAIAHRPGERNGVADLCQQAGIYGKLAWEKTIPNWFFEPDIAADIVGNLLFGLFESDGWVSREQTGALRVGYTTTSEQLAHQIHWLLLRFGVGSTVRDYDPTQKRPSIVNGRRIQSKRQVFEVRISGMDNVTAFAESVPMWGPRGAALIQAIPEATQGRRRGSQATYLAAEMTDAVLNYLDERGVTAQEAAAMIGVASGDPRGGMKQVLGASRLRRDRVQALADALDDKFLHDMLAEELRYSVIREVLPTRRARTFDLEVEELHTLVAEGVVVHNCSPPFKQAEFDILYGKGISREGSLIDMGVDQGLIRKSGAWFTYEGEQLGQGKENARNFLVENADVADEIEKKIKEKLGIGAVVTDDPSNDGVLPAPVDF
Active calls of the source: *; ? = inconclusive; · = not tested or not shown. Some of the compounds tested. The share of hits here may be higher or lower than overall.

Compound,Mtb betalactam,RecA splice inh
Fc1ccc(-c2csc(NC(=S)Nc3ccccc3)n2)cc1,·,-0.7
Cc1ccc(C2=NN(C(=O)CCl)C(c3ccco3)C2)o1 (stereo not drawn),·,62.8*
CCN(CC)c1ccc(S(=O)(=O)N2CCOCC2)cc1NC(=O)Cn1nc(C)c([N+](=O)[O-])c1C,-4.2,·
Cn1cccc1C(=O)Nc1ccc(Cl)c(S(=O)(=O)N2CCCCC2)c1,-3.5,·
Cc1ccc(OCCNC(=O)c2ccc(C)o2)cc1,-0.4,·
CC(C)(C)OC(=O)C[C@@H]1C/C=C\C[C@H](CC(=O)N(CCO)Cc2ccccc2)C(=O)N[C@@H](Cc2c[nH]c3ccccc23)COC1=O,-0.5,·
CN1CCC(N(C)C(=O)c2cc(-c3ccccc3Cl)nc3ccccc23)CC1,5.8,·
CN1CCN(S(=O)(=O)c2ccc([N+](=O)[O-])cc2)CC1,2.1,·
Cc1ccc(C)c(NC(=O)CN(C)C(=O)c2ccc(S(=O)(=O)N3CCCCCC3)cc2)c1,2.9,·
CC(=O)Nc1ccc(S(=O)(=O)NCC(=O)OCC(=O)N2CCCCCC2)cc1,7.5,·
Cc1cc(C)c(NC(=O)CSCc2nc3sc(C)c(C)c3c(=O)[nH]2)c(Cl)c1,-1.8,·
COc1ccc(CN2CC(=O)N3[C@H]4c5ccc(OC)cc5OC[C@@H]4[C@H](c4ccccc4)[C@]3(C)C2=O)cc1,9.3,·
Cc1ccc(C(C)C)c(OCC(=O)N/N=C2\CC(=O)CC(C)(C)C2)c1,2.0,·
O=C1OC(CC(=O)N(Cc2nnc(-c3ccc(Cl)cc3)o2)C2CC2)c2ccccc21 (stereo not drawn),-12.3,·
COc1ccccc1NS(=O)(=O)c1ccc(C(=O)NCc2ccco2)cc1,-10.6,·
COc1ccc(NC(=O)COC(=O)c2cc(S(=O)(=O)N3CCCC3)ccc2O)cc1,7.0,·
COc1ccc(NC(=O)CN(C)C(=O)c2ccc(OCc3ccccc3)c(OC)c2)cc1,60.6,·
O=C(NNC(=O)c1ccc(-n2cncn2)c([N+](=O)[O-])c1)c1ccc(Cl)cc1,-3.7,·
CC(Cc1ccccc1)NC=O (stereo not drawn),-3.9,·
COc1cccc(NC(=O)C(c2ccccc2)N2CCN(CC(=O)N3CCOCC3)CC2)c1 (stereo not drawn),-11.1,·
CC(=O)c1ccc(S(=O)(=O)Nc2ccccc2C(=O)NC2CC2)cc1,-2.9,·
Cc1nn(CC(=O)OCC(=O)c2ccccc2)c(C)c1[N+](=O)[O-],4.1,·
COc1cc(C2C(C(=O)c3cccs3)=C(O)C(=O)N2CCN2CCOCC2)ccc1OCCC(C)C (stereo not drawn),-8.0,·
Cc1noc(C)c1NC(=O)N(C)C[C@H]1Oc2ccc(NC(=O)CCN3CCOCC3)cc2C(=O)N([C@H](C)CO)C[C@@H]1C,-0.6,·
CC1CN(CCOc2ccc(F)cc2)CC(C)O1 (stereo not drawn),3.7,·
CCOc1ccc(OCc2ccc(C(=O)NN=Cc3ccc[nH]3)cc2)cc1,12.6,·
COC(=O)C1=C(c2ccccc2OCc2ccccc2)C[C@@H]2CC[C@H]1N2C(=O)NCCOc1ccc(OC)cc1,1.2,·
COc1cccc(CNC(=O)COC(=O)c2cccc(S(=O)(=O)N3CCN(C(C)=O)CC3)c2)c1,-4.6,·
COc1ccc(NC(=O)N(C)C[C@H]2Oc3c(NC(=O)Nc4c(C)noc4C)cccc3C(=O)N([C@H](C)CO)C[C@@H]2C)cc1,2.0,·
O=C(c1cc(-c2ccco2)nc2ccccc12)N1CCCC(C(F)(F)F)C1 (stereo not drawn),-7.3,·
CC(C(=O)Nc1ccc2c(c1)OCO2)N(C)CC(=O)Nc1ccccc1Cl (stereo not drawn),0.3,·
O=C(COC(=O)c1cccs1)NCc1cccs1,-0.3,·
C[C@H]1CN([C@@H](C)CO)C(=O)c2cccc(NS(=O)(=O)c3ccc(F)cc3)c2O[C@H]1CN(C)S(=O)(=O)c1cn(C)cn1,2.6,·
N#C/C(=C/c1ccccc1)C(=O)OCC(=O)Nc1ccccc1[N+](=O)[O-],2.6,·
CN(C)C(CNC(=O)c1cc(S(=O)(=O)N2CCOCC2)ccc1F)c1cccs1 (stereo not drawn),-0.4,·
NC(=O)c1ccc(NC(=O)COC(=O)CCC2CCCCC2)cc1,-3.5,·

Six successive records out of the list so far:
Compound,Mtb betalactam,RecA splice inh
CC1CN(CCOc2ccc(F)cc2)CC(C)O1 (stereo not drawn),3.7,·
CCOc1ccc(OCc2ccc(C(=O)NN=Cc3ccc[nH]3)cc2)cc1,12.6,·
COC(=O)C1=C(c2ccccc2OCc2ccccc2)C[C@@H]2CC[C@H]1N2C(=O)NCCOc1ccc(OC)cc1,1.2,·
COc1cccc(CNC(=O)COC(=O)c2cccc(S(=O)(=O)N3CCN(C(C)=O)CC3)c2)c1,-4.6,·
COc1ccc(NC(=O)N(C)C[C@H]2Oc3c(NC(=O)Nc4c(C)noc4C)cccc3C(=O)N([C@H](C)CO)C[C@@H]2C)cc1,2.0,·
O=C(c1cc(-c2ccco2)nc2ccccc12)N1CCCC(C(F)(F)F)C1 (stereo not drawn),-7.3,·

Further structures follow.
Compound,Mtb betalactam,RecA splice inh
Cc1ccc(C(=O)OCC(=O)Nc2ccc(Cl)cn2)s1,13.6,·
CCOC(=O)c1cc(-c2ccccc2C)nn1CC1CC(c2ccc(OC)cc2)=NO1 (stereo not drawn),12.5,·
COC(=O)[C@H](Cc1ccc(O)cc1)NC(=O)Cn1cnc2c(SC)nc(N)nc21,0.8,·
O=C(CN1C(=O)NC(Cc2c[nH]c3ccccc23)C1=O)Nc1ccc(F)c(F)c1F (stereo not drawn),-1.4,·
O=C(COC(=O)Cc1ccc(S(=O)(=O)N2CCOCC2)s1)Nc1ccc(OC(F)F)cc1,-3.3,·
Cc1ccccc1N1CCN(C2CCCN(C(=O)CCC3(C)CC3)C2)CC1 (stereo not drawn),?,·
COc1cccc(CNc2ccc(S(=O)(=O)N3CCN(C)CC3)cn2)c1,-2.6,·
CC(NC(=O)c1ccc(Cl)c(S(=O)(=O)N2CCCCCC2)c1)c1cccnc1 (stereo not drawn),2.4,·
NC(=O)C1CCN(c2nc(-c3ccccc3Br)cs2)CC1,7.3,·
CN(C)S(=O)(=O)c1ccc(N2CCCC2)c(C(=O)Nc2nccs2)c1,0.3,·
COc1ccc(CC(=O)OCC(=O)NC2CCCCC2)cc1OC,-2.9,·
COc1ccc(CNC(=O)Cn2ccc(N)nc2=O)cc1,3.7,·
Cc1cc(C(=O)OCC(=O)NCCc2ccccc2)c2ccccc2n1,-5.2,·
CC(C)c1ccc(-n2nnnc2SCC(=O)NC2CC2)cc1,4.8,·
CCN(CC(=O)Nc1ccccc1OC)C(=O)CN1C(=O)NC(C)(c2ccc(C)cc2)C1=O (stereo not drawn),9.4,·
CC(=O)Nc1ccc(NC(=O)c2cccc(S(=O)(=O)N3CCCCCC3)c2)cc1,-4.3,·
O=C(CN1CCN(S(=O)(=O)c2cccc(F)c2)CC1)NCC1(N2CCOCC2)CCCCC1,-1.2,·
O=C(CSc1nc2nn(-c3ccccc3)c(=O)c-2c2n1CCCCC2)Nc1ccc(F)c(F)c1,23.8,·
O=C(Cn1c(=O)oc2ccccc21)Nc1ccccc1Cl,0.1,·
COC(=O)C1=C(c2cccc(C#N)c2)C[C@@H]2CC[C@H]1N2C(=O)NC1CC1,7.2,·
CC(=O)c1c(C)[nH]c(C(=O)COC(=O)CCNS(=O)(=O)c2ccc(C)c(C)c2)c1C,-3.7,·
Cc1ccc(/C=N/NC(=O)c2cc3ccccc3cc2O)o1,-28.1,·
Cc1[nH]c2ccc(OCc3ccccc3)cc2c1CCN,-0.1,·
O=C(Nc1cccc(F)c1)C1CCCCC1,-4.4,·
Cc1ccc(CN2CC(C(=O)N3CCN(S(=O)(=O)c4ccc(C)cc4C)CC3)CC2=O)cc1 (stereo not drawn),1.1,·
CC(NCC(=O)NCC(=O)Nc1ccc(F)cc1)c1cccc(C(F)(F)F)c1 (stereo not drawn),-0.1,·
COc1cccc(-c2csc(N3CCN(C(=S)NCC(C)C)CC3)n2)c1,-15.2,·
O=C1C=C(c2ccc3c(c2)OCO3)C[C@@H](c2ccc3c(c2)OCO3)C1,0.6,·
Cc1cccc(C)c1NC(=O)COC(=O)CN1C(=O)C2CCCCC2C1=O (stereo not drawn),2.7,·
Cc1nc(SCC(=O)NC2CCCCC2C)c(C#N)c(C)c1C (stereo not drawn),1.4,·
Cc1cc(C)cc(-n2ccnc2SCC(=O)c2c(N)n(C3CC3)c(=O)[nH]c2=O)c1,-5.3,·
C=CCC[C@@H](Cc1ccc(F)cc1)C(=O)OC[C@@H](NC(=O)[C@H](CC=C)CC(=O)N(CCO)Cc1ccccc1)c1ccccc1,-14.5,·
O=C(COC(=O)c1ncc(Cl)c(Cl)c1Cl)NCc1ccccc1,-4.9,·
COc1ccc(-c2cn3nc(C)c(C)nc3n2)cc1OC,-6.2,·
Cn1cc(C(=O)OCC(=O)NC2(C#N)CCCC2)c2ccccc21,-4.1,·
O=S(=O)(Nc1cc(Cl)ccc1-n1cncn1)c1ccccc1Cl,5.2,·
CN(c1ccc(OC(=O)CC2OC(=O)c3ccccc32)cc1)S(=O)(=O)c1ccccc1 (stereo not drawn),1.5,·
Cn1cccc1C(=O)OCC(=O)NCCc1ccccc1,-2.0,·
O=S(=O)(c1ccc(F)cc1)N1CCN(c2nc(-c3cccnc3)nc3ccccc23)CC1,8.0,·
COc1ccccc1-n1nnnc1SCC(=O)NC(=O)Cc1ccccc1,-1.0,·
CC1CCCC(NC(=O)COC(=O)c2ccc([N+](=O)[O-])o2)C1C (stereo not drawn),72.6,·
CC(=O)c1c(C)[nH]c(C(=O)NNC(=O)c2ccc(C)cc2)c1C,-0.5,·
CC1CCCCC1NC(=O)NC(=O)COC(=O)C1=NN(c2ccccc2)C(=O)CC1 (stereo not drawn),-4.4,·
O=C(COC(=O)c1n[nH]c2ccccc12)NCCc1ccccc1,2.9,·
CN(CC(=O)Nc1ccc(Cl)c(S(=O)(=O)N2CCOCC2)c1)C(=O)c1cccs1,-2.8,·
O=C(Cc1ccc(S(=O)(=O)N2CCOCC2)s1)NCC(=O)Nc1ccccc1Br,-9.6,·
O=C(Nc1cc([N+](=O)[O-])ccc1O)NC1CCS(=O)(=O)C1 (stereo not drawn),-6.2,·
CNC(=O)[C@H]1O[C@@H](n2cnc3c(NCc4cccc(I)c4)nc(Cl)nc32)[C@H](O)[C@@H]1O,6.9,·

The final 4 records of the section before are carried over, then new ones follow:
Compound,Mtb betalactam,RecA splice inh
CN(CC(=O)Nc1ccc(Cl)c(S(=O)(=O)N2CCOCC2)c1)C(=O)c1cccs1,-2.8,·
O=C(Cc1ccc(S(=O)(=O)N2CCOCC2)s1)NCC(=O)Nc1ccccc1Br,-9.6,·
O=C(Nc1cc([N+](=O)[O-])ccc1O)NC1CCS(=O)(=O)C1 (stereo not drawn),-6.2,·
CNC(=O)[C@H]1O[C@@H](n2cnc3c(NCc4cccc(I)c4)nc(Cl)nc32)[C@H](O)[C@@H]1O,6.9,·
CC(C)=CCC[C@](C)(O[C@@H]1O[C@H](CO[C@@H]2O[C@H](CO)[C@@H](O)[C@H](O)[C@H]2O)[C@@H](O)[C@H](O)[C@H]1O)C1CC[C@]2(C)C1C(=O)CC1[C@@]3(C)CC[C@H](O[C@H]4O[C@@H](CO)[C@H](O)[C@@H](O)[C@@H]4O)C(C)(C)C3CC[C@]12C (stereo partly drawn),-2.2,·
CN(CC(=O)Nc1ccc(Cl)cc1)CC(=O)Nc1cccc(Br)c1,3.4,·
CCc1ccccc1NC(=O)CN(C)C(=O)Cn1cnc2ccc(Cl)cc2c1=O,-2.5,·
CC1CCCN(C(=O)COC(=O)COc2ccc(C#N)cc2)C1 (stereo not drawn),-2.2,·
COc1ccc(-n2ncc3c(=O)n(CC(=O)N(C(C)C)C(C)C)cnc32)cc1,-6.9,·
O=C(NNC(=O)c1ccccc1-n1cccc1)c1ccc(Cl)nc1,0.1,·
Cc1ccc(S(=O)(=O)N(C)C[C@H]2Oc3ccc(NC(=O)C4CCCCC4)cc3C(=O)N([C@H](C)CO)C[C@H]2C)cc1,-0.9,·
COc1ccccc1-c1nnc2n1N=C(c1ccc(OC(F)F)c(OCC3CC3)c1)CS2,2.5,·
CCNc1c(NS(=O)(=O)c2ccc(OC)cc2)c(=O)oc2ccccc12,2.5,·
COc1ccc(NC(=O)CN(C)C(=O)c2ccc3c(c2)NC(=O)CS3)cc1,-0.5,·
Cc1ccc(C(=O)OCC(=O)NC2CCCc3ccccc32)o1 (stereo not drawn),3.7,·
CCOC(=O)C1CCCN(C(=O)CCNS(=O)(=O)c2ccc(Br)cc2)C1 (stereo not drawn),-1.0,·
COc1ccc(S(=O)(=O)Nc2ccccc2C(=O)NN2CCOCC2)cc1OC,-3.1,·
COC(=O)C1=C(c2ccc(-c3ccccc3)c(F)c2)C[C@@H]2CC[C@H]1N2C(=O)NCCOc1ccccc1Cl,4.8,·
O=C(CC1SC(N2CCOCC2)=NC1=O)Nc1ccccc1F (stereo not drawn),3.0,·
COc1ccc(Cl)cc1NC(=O)CN(C)C(=O)c1cc(=O)c2ccccc2o1,-6.9,·
O=C(NNC(=S)NC(=O)c1ccc(F)cc1)c1ccncc1,97.1,·
